Fam108B inh: mouse Fam108B serine hydrolase inhibitors, primary screen, counter-screen for RBBP9 inhibitor project, biochemical, fluorescence polarization; inhibition, % at 9.51 µM; recombinant Fam108B, FP-Rh probe fluorescence polarization; actives 0.33% (n = 300,000);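 active means inhibition above the screen mean inhibition plus 3 SD, computed separately per campaign, cut at about 18% in these data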;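 further: inhibitors lower polarization as less probe binds the enzyme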
GLD-1 TGE inh: GLD-1/TGE RNA complex disruptors, primary screen, biochemical, fluorescence polarization; Female germline-specific tumor suppressor gld-1 (Caenorhabditis elegans), Q17339; actives 0.44% (n = 320,000); purified GLD-1 + fluorescein TGE RNA; inhibition, % at 5.96 µM;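 active means percent inhibition above a per-plate cutoff, the plate mean of test compounds plus 3 SD, cut at about 30% in these data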;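 further: 0% = DMSO wells with GLD-1 and probe and 100% = wells lacking GLD-1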
MEX-5 binding: MEX-5 zinc finger RNA-binding disruptors – biochemical, C. elegans, fluorescence polarization, MLPCN library, primary screen; activity score (negative = inhibition of binding), % at 10 µM; MEX-5/FITC-TCR2 RNA binding; stronger effect = lower value; Zinc finger protein mex-5 (Caenorhabditis elegans), Q9XUB2; actives 0.38% (n = 300,000);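 active means inhibition past about -25% in most replicates, and total fluorescence under double the plate's negative control median, limit read from the data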;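 further: 0% = DMSO and -100% = 5 µM competing unlabeled TCR2 RNA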
PAFAH1B2 FP inh: PAFAH1B2 enzyme inhibitors, primary screen, biochemical, fluorescence polarization, human; AID 492953, 2010; actives 1.2% (n = 340,000); inhibition, % at 3.39 µM; Platelet-activating factor acetylhydrolase IB subunit alpha2 (Homo sapiens), P68402; recombinant PAFAH1B2, FP-rhodamine activity probe;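 active means inhibition above the mean of all tested compounds plus 3 SD, cut at about 24% in these data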;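 further: 0% = enzyme with DMSO and 100% = wells lacking PAFAH1B2; many of its hits are not listed in these tables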
MCL1 BIM primary: inhibitors of MCL1 binding to BIM-BH3, primary screen, biochemical, fluorescence polarization; GST-MCL1 / FITC-Bim-BH3 fluorescence polarization; inhibition, % at 10.9 µM; actives 0.68% (n = 320,000); AID 2057, 2009;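 active means inhibition above the mean inhibition of all tested compounds plus 3 SD, set per campaign, cut at about 40% in these data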;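 further: 0% = DMSO wells and 100% = unlabeled Bim-BH3 peptide control; higher means more loss of mP so more displacement of Bim peptide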
Target sequence (Q07820 whole entry, looked up): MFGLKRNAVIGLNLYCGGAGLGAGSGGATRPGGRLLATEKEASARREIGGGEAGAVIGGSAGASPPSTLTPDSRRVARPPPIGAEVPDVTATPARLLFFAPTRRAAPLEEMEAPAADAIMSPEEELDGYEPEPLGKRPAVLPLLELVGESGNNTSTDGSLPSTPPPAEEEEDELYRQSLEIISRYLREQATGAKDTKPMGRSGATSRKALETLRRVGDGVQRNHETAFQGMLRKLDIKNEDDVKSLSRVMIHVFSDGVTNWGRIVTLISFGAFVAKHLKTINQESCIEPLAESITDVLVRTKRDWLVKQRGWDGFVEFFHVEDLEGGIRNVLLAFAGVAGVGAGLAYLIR
pPAFAH FP inh: pPAFAH enzyme inhibitors, primary screen, biochemical, fluorescence polarization, human; Platelet-activating factor acetylhydrolase (Homo sapiens), Q13093; recombinant pPAFAH, FP-rhodamine probe fluorescence polarization; inhibition, % at 3.39 µM; actives 1.5% (n = 330,000);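 active means inhibition above the mean inhibition across the screen plus 3 SD, cut at about 25% in these data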;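 further: inhibitors block binding of the rhodamine activity-based probe so polarization drops; 0% = enzyme with DMSO and 100% = wells lacking pPAFAH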
Target sequence (Q13093 whole entry, looked up): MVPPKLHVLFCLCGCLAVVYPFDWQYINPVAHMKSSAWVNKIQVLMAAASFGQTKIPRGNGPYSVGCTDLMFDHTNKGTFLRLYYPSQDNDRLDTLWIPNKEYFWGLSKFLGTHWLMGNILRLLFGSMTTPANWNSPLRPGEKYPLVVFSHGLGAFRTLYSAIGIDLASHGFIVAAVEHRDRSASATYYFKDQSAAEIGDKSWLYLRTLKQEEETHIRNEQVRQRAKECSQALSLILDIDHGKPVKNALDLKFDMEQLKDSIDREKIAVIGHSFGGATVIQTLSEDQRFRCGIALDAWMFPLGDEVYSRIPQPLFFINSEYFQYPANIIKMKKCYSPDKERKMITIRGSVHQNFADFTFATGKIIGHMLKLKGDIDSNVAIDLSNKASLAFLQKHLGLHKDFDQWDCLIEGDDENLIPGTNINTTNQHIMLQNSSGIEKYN
AHR activator: AHR activators, primary screen, cell-based, luminescence, luciferase reporter, human; AHR-responsive luciferase reporter cells; actives 2.5% (n = 320,000); activation, % at 5 µM; Aryl hydrocarbon receptor (Homo sapiens), P35869; in the data active means activation above about 47%;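 further: 0% = vehicle wells and 100% = reference agonist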
Bcl-xL primary: inhibitors of human Bcl-xL, primary screen, biochemical, fluorescence polarization, HTS; GST-Bcl-xL / FITC-Bim BH3 peptide fluorescence polarization; inhibition, % at 10.9 µM; actives 0.7% (n = 320,000); AID 2129, 2009;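 active means inhibition above the mean of all tested compounds plus 3 SD, cutoff set per campaign, cut at about 30% in these data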;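 further: 0% = DMSO wells and 100% = unlabeled Bim-BH3 peptide competitor; inhibitors lower millipolarization by displacing the labeled peptide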
Target sequence (Q07817 whole entry, looked up): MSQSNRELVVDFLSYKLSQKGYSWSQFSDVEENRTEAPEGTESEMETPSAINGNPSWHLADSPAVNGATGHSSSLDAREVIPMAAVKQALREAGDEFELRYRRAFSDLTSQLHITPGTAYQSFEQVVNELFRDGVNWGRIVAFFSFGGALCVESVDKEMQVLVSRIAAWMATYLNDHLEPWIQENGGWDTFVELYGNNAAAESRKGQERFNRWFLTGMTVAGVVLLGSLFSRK
Active calls of the source: *; / = not tested or not shown. These rows are one share of the data; rates above refer to the full screens.

SMILES	Fam108B inh	GLD-1 TGE inh	MEX-5 binding	PAFAH1B2 FP inh	MCL1 BIM primary	pPAFAH FP inh	AHR activator	Bcl-xL primary
COc1ccccc1C(CC(=O)Nc1ccc(Cl)cc1)c1ccc(OC(C)C)cc1 (configuration not stated)	-27	4	1.9	-10	1	-5	2	7
CCOc1ccccc1-n1nnnc1SCC(=O)NC(=O)Nc1ccc2c(c1)OCCO2	-7	3	-0.2	1	2	10	-1	8
Cc1ccc(C)c(Cn2nnc3c(=O)[nH]c(C(=O)Nc4ccc(F)cc4)nc32)c1	0	-2	1.0	-8	1	-4	-2	6
CCCC(=O)NCCc1cc(OC)c(OC)cc1Br	4	9	-1.4	1	-5	0	17	-3
COCCNC(=S)NCCCNc1nc2cc3c(cc2cc1C#N)OCO3	0	2	0.3	-2	14	1	16	8
O=[N+]([O-])c1ccccc1/C=N/n1c(-c2ccccc2)n[nH]c1=S	-1	1	0.0	0	-9	3	28	-21
O=[N+]([O-])c1c(NCCCO)cc(N2CCCCCC2)c2nonc12	-1	-3	-4.9	6	6	-2	3	1
CC(NC(=O)COC(=O)Cc1ccccc1[N+](=O)[O-])c1ccccc1 (configuration not stated)	-4	4	-0.4	1	-8	-5	4	-4
CC(C)(C)c1cnnn1-c1cccc([N+](=O)[O-])c1	5	-8	-0.4	/	-3	-3	1	4
CCN(CC)S(=O)(=O)c1cccc(NC(=O)COC(=O)C2=COCCO2)c1	/	5	/	9	-13	6	-1	1
COc1cccc(CC(=O)Nc2cc(S(=O)(=O)N3CCCCC3)ccc2C)c1	/	5	/	0	5	2	0	0
CCCCNC(=O)COC(=O)CCC(=O)c1ccc(F)cc1	-1	-3	1.3	5	6	14	0	11
O=S(=O)(c1ccccc1)c1cnn(-c2ccccc2)c1-c1ccc(F)cc1	4	-9	0.7	28*	4	-3	0	5
COc1cc(NS(=O)(=O)c2cc(C)ccc2OC)c(OC)cc1Cl	-1	9	0.2	7	6	2	20	4
CC(=O)c1cccc(NC(=O)Cn2cnc(S(=O)(=O)N3CCC(C)CC3)c2)c1	-2	5	1.3	2	1	5	1	5
COc1ccc(OC)c(NC(=O)c2ccccc2NS(=O)(=O)c2cccc3cccnc23)c1	3	3	-0.8	2	-5	3	1	-2
CCNC(=O)N1C(=O)C2(OCCO2)c2ccccc21	-3	-4	-0.2	3	0	-1	0	10
O=C(NCCCN1CCOCC1)c1ccc2c(c1)N(Cc1c(F)cccc1Cl)C(=O)CS2	-4	-2	-2.2	6	4	3	0	6
COc1ccccc1NC(=S)N/N=C1\CC(C)(C)Oc2ccc(O)cc21	2	6	0.2	20	7	7	24	11
COc1cccc(/C=N\n2c(C)nnc2C)c1OC	-2	3	0.1	6	8	0	5	3
COc1cccc(C2=CC(=O)C[C@H](c3ccc(Cl)cc3)C2)c1OC	/	2	/	-3	-3	0	2	1
N/C(=N\c1nc2c(c(=O)[nH]1)CCCC2)Nc1ccc(Oc2ccccc2)cc1	-3	3	1.1	3	-3	1	-2	1
Cc1cccc(NC(=O)Cn2cnc(S(=O)(=O)N3CCCC3)c2)c1C	3	5	3.1	-5	4	0	1	5
COc1ccc(S(=O)(=O)N2CCCCCC2)cc1C(=O)NCCc1ccc(F)cc1	/	-1	/	6	8	2	0	6
CCOc1ccc(N2CC(C(=O)NCCN3C(=O)S/C(=C/c4cccnc4)C3=O)CC2=O)cc1 (configuration not stated)	/	/	/	7	/	/	/	/

(cont.)
SMILES	Fam108B inh	GLD-1 TGE inh	MEX-5 binding	PAFAH1B2 FP inh	MCL1 BIM primary	pPAFAH FP inh	AHR activator	Bcl-xL primary
CCN(CC)S(=O)(=O)c1cccc(NC(=O)COC(=O)c2cccs2)c1	-3	0	0.7	4	-2	10	-2	0
CS(=O)(=O)N1CCN(c2ccccc2NC(=O)c2cc(Br)ccc2Cl)CC1	2	0	0.7	8	4	-1	5	2
COc1ccc(-c2[nH]c(-c3ccc(Cl)cc3)nc2SCC(=O)Nc2nccs2)cc1	12	0	-2.2	1	1	9	62*	3
CCN(CC)S(=O)(=O)c1cccc(NC(=O)COC(=O)c2ccc(Br)o2)c1	0	-3	-2.9	5	7	10	3	7
CCOC(=O)c1nc(C)sc1-c1ccnn1S(=O)(=O)c1ccc(Cl)cc1Cl	6	2	-0.3	15	5	6	1	-5
CC(C)[C@H](NC(=O)c1ccccc1)C(=O)OCC(=O)c1ccc2c(c1)NC(=O)CO2	-3	6	0.5	0	-10	3	1	-2
Nc1c(C(=O)c2ccccc2)oc2ccc([N+](=O)[O-])cc12	4	7	2.8	0	-4	4	1	2
Cc1ccc(C)c(S(=O)(=O)C(C#N)c2nc3ccccc3nc2N2CCCC2)c1 (configuration not stated)	10	51*	-7.7	-4	78*	18	10	77*
CCN(CC)S(=O)(=O)c1ccc(OC)c(NC(=O)CSc2cc(Cl)ccc2Cl)c1	-16	1	2.7	-3	3	1	3	6
Cc1ccccc1NS(=O)(=O)c1ccc(C)c(C(=O)N2CCOCC2)c1	2	4	0.7	-1	4	34*	-3	5
O=C(CN1CCN(c2ccccc2Cl)CC1)NC1CCCc2ccccc21 (configuration not stated)	-1	-1	0.1	3	6	3	-3	4
N#Cc1cccc(NC(=O)Nc2cccs2)c1	9	5	-2.0	-4	4	10	12	8
O=C(Nc1cccc(C(F)(F)F)c1)C1CCN(S(=O)(=O)c2ccc(N3CCCC3=O)cc2)CC1	-11	0	1.3	2	0	-4	0	8
COc1cccc(NC(=O)CN2CCN(CC(=O)Nc3ccccc3Cl)CC2)c1	1	5	0.6	1	-4	-2	-1	2
C/C(=N\N=c1/sc2ccccc2n1C)c1ccccn1	5	2	-1.0	1	8	6	104*	4
COc1ccc(NS(=O)(=O)c2cccc(C(=O)N3CCCCCC3)c2)cc1	-2	4	-1.4	8	-12	31*	1	-5
CC1CCN(CCCNc2cc(NCCO)c([N+](=O)[O-])c3nonc23)CC1	-1	6	1.2	3	-5	2	9	-3
O=C(COC(=O)c1c2c(nc3ccccc13)CCCC2)Nc1ccc2c(c1)OCO2	3	-2	0.4	-2	4	10	11	6
O=C(CNCc1ccccn1)Nc1cc(S(=O)(=O)N2CCCCC2)ccc1Cl	1	3	0.2	6	0	2	2	-3
N/C(=N\c1nc(CSc2nnnn2-c2ccccc2)cc(=O)[nH]1)Nc1ccccc1	-6	0	-0.8	/	-5	1	5	5
O=C(CCSc1nnc(-c2ccncc2)o1)Nc1ccc(Cl)cc1	1	-1	1.0	5	-3	5	-3	8
CC1C(=O)N(Cc2ccc([N+](=O)[O-])cc2)c2ccccc2N1C(=O)c1c(F)cccc1F (configuration not stated)	2	-2	1.0	4	2	7	0	2
Cc1cccc(NC(=O)c2nc[nH]c2C(=O)N[C@@H](C)C(=O)OC(C)(C)C)c1	-1	4	3.4	3	3	-11	0	2
COc1ccc(CN2CCN(C(=O)c3cccc4ccccc34)CC2)cc1OC	-8	5	-4.7	2	3	-1	-5	0
COc1ccc(-n2c(C(C)(C)C)csc2=Nc2c(C)n(C)n(-c3ccccc3)c2=O)cc1	0	1	1.2	-1	10	5	-2	3

Three compounds from above, sorted by their value in PAFAH1B2 FP inh, descending.
molecule	PAFAH1B2 FP inh
COc1cccc(NC(=O)CN2CCN(CC(=O)Nc3ccccc3Cl)CC2)c1	1
CC(C)[C@H](NC(=O)c1ccccc1)C(=O)OCC(=O)c1ccc2c(c1)NC(=O)CO2	0
N#Cc1cccc(NC(=O)Nc2cccs2)c1	-4

The main list resumes, repeating the 2 entries before the break.
SMILES	Fam108B inh	GLD-1 TGE inh	MEX-5 binding	PAFAH1B2 FP inh	MCL1 BIM primary	pPAFAH FP inh	AHR activator	Bcl-xL primary
COc1ccc(CN2CCN(C(=O)c3cccc4ccccc34)CC2)cc1OC	-8	5	-4.7	2	3	-1	-5	0
COc1ccc(-n2c(C(C)(C)C)csc2=Nc2c(C)n(C)n(-c3ccccc3)c2=O)cc1	0	1	1.2	-1	10	5	-2	3
C[C@H](NC(=O)c1nc[nH]c1C(=O)NCC(=O)OCc1ccccc1)C(=O)OC(C)(C)C	-3	1	1.8	3	3	-1	0	2
COc1ccc(Oc2ccc(S(=O)(=O)N3CCCCC3)cc2S(=O)(=O)N2CCCCC2)cc1	-1	-3	-0.3	5	-6	5	-1	0
CCOC(=O)N1CCC(N2C(=O)c3ccccc3C2Nc2ccc3c(C)cc(=O)oc3c2)CC1 (configuration not stated)	6	2	-0.3	1	5	7	0	4
COc1cccc(NC(=O)COC(=O)c2ccccc2F)c1	-2	0	1.5	-2	-2	13	2	-3
CCN(c1ccccc1)S(=O)(=O)c1ccc(OC)c(NC(=O)Cc2ccc(OC)c(OC)c2)c1	/	6	/	6	3	2	1	5
Cc1nc2sccn2c(=O)c1S(=O)(=O)Nc1cccc(Cl)c1C	3	0	1.2	5	2	3	3	-1
CC(=O)Oc1ccc2ccccc2c1C(NC(=O)Cc1ccccc1)c1ccccc1 (configuration not stated)	1	11	-2.0	4	4	-10	19	2
CCOC(=O)CCCNC(=O)COC(=O)CCC(=O)c1ccc(F)cc1	-2	6	1.6	3	1	8	0	5
Cc1ccc(NC(=O)N2C(=O)C3(OCCO3)c3ccccc32)cc1	3	6	0.2	12	8	4	14	7
O=C1CN(C(=O)c2c(F)cccc2F)C(c2ccccc2)c2cc(Br)ccc2N1 (configuration not stated)	0	3	-1.4	2	0	9	0	5
COc1ccc(CC(=O)Nc2ccc(-c3noc(-c4cccc(OC)c4)n3)cc2)cc1	-23	1	0.2	-9	-1	-2	1	1
Cn1nc(-c2ccc(Cl)cc2)cc1NC(=O)CSCC(=O)O	0	-2	-1.6	/	-4	6	6	2
O=C(Nc1ccccc1)C1=C(O)CC(c2ccoc2)CC1=Nc1ccccc1 (configuration not stated)	2	-6	1.7	-1	9	5	0	5
CCCN1CCc2c(sc(NC(=S)NC(=O)c3ccccc3)c2C#N)C1	-1	-102	-2.0	3	-87	8	18	-51
CCc1cc(C(=O)N/N=C/c2c(C)[nH]c3ccccc23)cs1	1	1	1.9	6	1	6	99*	3
COCCNC(=O)c1onc(CCl)c1C(=O)OC	1	-4	3.8	0	2	0	3	1
COc1ccc(C(=O)Nc2ccc(C3(C#N)CCCC3)cc2)cc1OC	-4	3	0.6	4	-4	-2	5	4
O=C1C=C(c2cnc3ccccc3c2)C[C@@H](c2ccc3c(c2)OCO3)C1	/	4	/	0	3	2	47	6
CCc1nc2c(nnn2Cc2ccc(F)cc2)c(=O)[nH]1	0	2	0.8	6	0	0	1	-2
COc1ccc(NC(=O)Nc2c(C)n(C)n(-c3ccccc3)c2=O)cc1	3	3	-0.3	-2	-2	-4	2	0
N#Cc1ccccc1NS(=O)(=O)c1cc2c3c(c1)CCN3C(=O)CC2	0	-1	-1.8	4	11	5	2	9
CN1C(=O)N(C)C2C1N(C)S(=O)(=O)N2C (configuration not stated)	1	-9	0.6	0	-7	2	-1	-2
CCc1ccc(Nc2ccc(S(=O)(=O)N3CCOCC3)cc2[N+](=O)[O-])cc1	2	-2	-3.7	2	-12	9	4	0
CCN(CCCNC(=O)c1cn(CC)c2ccc(S(=O)(=O)N(C)C)cc2c1=O)c1cccc(C)c1	9	3	-2.2	3	1	10	6	8
Cc1ccccc1-n1c(-c2ccc(Br)o2)n[nH]c1=S	5	0	-1.3	8	-14	0	-2	-8
COc1ccc(C)cc1S(=O)(=O)Nc1cc(Cl)ccc1Cl	-7	2	-1.2	5	-1	1	23	-3
O=C(CNC(=O)N1CC(=O)Nc2ccccc21)NCCc1ccc(Cl)cc1	7	0	1.3	22	5	-3	6	6
Cc1ccc(-n2c(-c3ccc(Cl)cc3Cl)n[nH]c2=S)cc1	2	0	-2.1	8	-6	-2	4	-6
